Compound activity: PubChem, National Center for Advancing Translational Sciences (NCATS)
CtBP-E1A inh = blocks the CtBP interaction with E1A | AlphaScreen GST-E1A/His-CtBP binding, 1536-well; stronger effect = lower value; control for the full effect not named in the record | activity change, % (no concentration beside the values) | 0.49% of 340,000 active; in the data active means activity change below about -65%; inconclusive means about -30% to -65%; inactive means above about -30%; further: on the % scale 0 is the no-effect control and ±100 the full control effect; compound concentration not given in the record
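Protein mix (5X: 125 nM each GST-E1A, His-CtBP) was incubated with pinned compound 2 h at 37 deg C in dark, in 50 mM Tris pH 8.0 buffer with 300 mM NaCl. Glutathione donor and nickel acceptor beads followed; AlphaScreen signal read after 1 h.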
TRPML1 inh = human mucolipin-1 channel inhibition | Q9GZU1 | TRPML1-inducible cells, Ca2+ dye fluorescence, FDSS; stronger effect = lower value; inhibition of EC80 agonist-evoked calcium signal | activity change, negative = inhibition, % (test concentration not listed) | 0.02% of 390,000 active | AID 624415; in the data active means activity change below about -50%; inconclusive means about -30% to -50%; inactive means above about -30%;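 further: stimulus is agonist 54-4 at its EC80 concentration; on the % scale 0 is the no-effect control and ±100 the full control effect; compound concentration not given in the record; the text of the record puts the active cut at -80%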
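TRPML1-DL cells, Tet-induced overnight (~16 h, 37 °C) at 1,500 cells/well, were loaded with Ca8 no-wash dye plus quencher for 45-90 min at room temperature. Compounds were pinned during FDSS kinetic reading; agonist 54-4 at EC80 (4 uM final) then added.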
TRPML1 ag = agonists of human TRPML1 channel | 0.12% of 410,000 active | TRPML1-expressing cells, Ca2+ dye fluorescence, FDSS; host cell line not named in the record; reference of the full effect not given here | Q9GZU1 | activation, % (no concentration beside the values); in the data active = activation above about 50%; inconclusive = about 30% to 50%; inactive = below about 30%; further: 0% is about no effect; the text of the record puts the active cut at 80%
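Cells: TRPML1-DL, 1X Tet inducer, ~16 h at 37 degrees C/5% CO2. Dye: ABD Ca8 no-wash + quencher, 45-90 min RT. Read: 10 s baseline, compound add, 110 s agonist phase; 54-4 EC80 (4uM final), 110 s antagonist phase.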
D2 agonist = human D2 receptor agonism in beta-arrestin assay; P14416; DiscoveRx PathHunter D2 beta-arrestin, luminescence, 90 min; 100% = 57 uM dopamine signal; activation, % (test concentration not listed); 0.084% of 360,000 active; AID 624465; in the data active = activation above about 40%; inconclusive = about 15% to 40%; inactive = below about 15%; further: compound concentration not given in the record; the text of the record calls up to 30% inactive
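Agonist mode: compounds alone added to overnight-plated D2 PathHunter cells for 90 min at 37 C, with 57 uM final dopamine (EC100) defining full response. Beta-arrestin recruitment detected by chemiluminescent reagent, read after 1 h at ambient temperature.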
PINK1 modulator = PINK1 expression modulation | PINK1 immunofluorescence, high-content cytometry, 24 h | Potency, µM (doses to about 76.6 µM), without a hit: top-dose activation (PINK1 increase), hits mostly activators | 0.2% of 410,000 active | AID 624263; active = well fitted activation curve with a large enough effect; inconclusive = small, poorly fitted or top-dose-only effect; inactive = flat fitted curve, though single readings scatter; cell line not stated here;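 further: potency means the concentration at half of the fitted maximal effect; % of control where 0% means no effect; nearly all actives have a fitted effect of over 65% in size; a mitochondrial uncoupler was the plate control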
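Measures PINK1 amount and localization on or inside mitochondria by immunofluorescence. Stable cells get compounds at 5 concentrations for 24 hours before fixation and staining; CCCP controls included.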
Six1-Eya2 inh = Six1/Eya2 interaction inhibition; Q15475+O00167; AlphaScreen GST-Six1/His-Eya2 binding, biochemical; stronger effect = lower value; control for the full effect not named in the record; activity change, % (concentration not given with the values); 0.56% of 360,000 active; in the data active = activity change below about -65%; inconclusive = about -30% to -65%; inactive = above about -30%; further: on the % scale 0 is the no-effect control and ±100 the full control effect
Target sequence (O00167 whole entry, looked up): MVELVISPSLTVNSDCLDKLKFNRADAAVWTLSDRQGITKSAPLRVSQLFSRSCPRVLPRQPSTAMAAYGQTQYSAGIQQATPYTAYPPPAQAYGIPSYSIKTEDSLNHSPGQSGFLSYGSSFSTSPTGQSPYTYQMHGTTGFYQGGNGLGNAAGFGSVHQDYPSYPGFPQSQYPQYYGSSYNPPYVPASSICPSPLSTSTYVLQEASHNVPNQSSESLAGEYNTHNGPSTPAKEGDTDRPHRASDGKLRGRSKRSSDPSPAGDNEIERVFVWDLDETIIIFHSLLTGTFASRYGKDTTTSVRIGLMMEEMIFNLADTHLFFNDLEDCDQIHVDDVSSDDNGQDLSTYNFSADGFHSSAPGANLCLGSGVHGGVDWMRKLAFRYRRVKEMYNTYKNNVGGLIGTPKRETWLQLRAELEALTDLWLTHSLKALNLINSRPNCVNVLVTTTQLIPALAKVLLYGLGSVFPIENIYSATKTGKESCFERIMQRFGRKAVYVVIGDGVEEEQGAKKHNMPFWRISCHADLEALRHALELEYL
Target sequence (Q15475 whole entry, looked up): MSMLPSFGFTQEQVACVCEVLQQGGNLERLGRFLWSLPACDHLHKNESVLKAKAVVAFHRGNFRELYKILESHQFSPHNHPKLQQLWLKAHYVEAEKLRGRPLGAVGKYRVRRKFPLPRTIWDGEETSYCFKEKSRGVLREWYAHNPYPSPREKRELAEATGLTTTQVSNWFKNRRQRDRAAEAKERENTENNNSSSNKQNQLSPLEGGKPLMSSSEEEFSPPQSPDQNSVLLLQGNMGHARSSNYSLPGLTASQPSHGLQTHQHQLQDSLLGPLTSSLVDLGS
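Homogeneous AlphaScreen proximity assay pairing GST-Six1 with His-tagged Eya2 (added as 5X mix: 250 nM and 500 nM) in 50 mM Tris pH 8.0, 300 mM NaCl, 1 mM TCEP. Glutathione donor and nickel acceptor beads; 1 h, 37 °C, dark.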
Starred values were filed as active, the others as inactive; ? = inconclusive; nt = no result given; [ ] = remark or other dose.

SMILES | CtBP-E1A inh | TRPML1 inh | TRPML1 ag | D2 agonist | PINK1 modulator | Six1-Eya2 inh
CC(=O)N1CCN(S(=O)(=O)c2cccc(C(=O)OCC(=O)NCc3ccccc3Cl)c2)CC1 | 4 | -2 | -0.1 | -3.1 | 0.6% | 2
CCSC(=O)CCCCCCCCCCCO | 23 | 4 | 0.4 | 1.0 | 0.7% | 36
CCn1c(SCC(=O)Nc2ccc(OC)cc2)nc2c1c(=O)n(C)c(=O)n2C | 2 | -4 | -0.2 | 0.8 | 1.0% | 3
CCNC(=O)C1(C)CCCN(Cc2cc3ccccc3o2)C1 (configuration not stated) | 3 | nt | -1.1 | 8.3 | 0.3% | 3
COC(=O)c1sc2nc3c(cc2c1N)C(=O)CC(C)(C)C3 | 11 | -2 | -0.4 | -1.8 | 17%[38.3 µM] | 3
NC(=O)c1ccc(NC(=O)CCC(=O)c2cccs2)cc1 | -13 | 6 | -0.4 | -2.2 | 0.2% | -9
NC(=O)c1nnn(-c2ccc([N+](=O)[O-])cc2)c1-c1ccccc1 | -2 | 0 | 1.4 | 1.0 | -0.8% | 1
CC1(OC(=O)C2CCCC2)C(=O)C=C2C=C(c3ccsc3)N(Cc3ccccc3)C=C2C1=O (configuration not stated) | nt | 8 | 0.1 | 5.3 | 0.8% | -5
Cc1c(C(=S)NC(=O)C2CC2)c(=O)n(-c2ccccc2)n1C | nt | 17 | 1.7 | -3.7 | 1.3% | -12
Cc1ccc(C(=O)O)c(NC=O)c1OCc1ccccc1 | 5 | 6 | 0.4 | 1.0 | 3.9% | 5

Ordered by count of non-hydrogen atoms (falling): some entries from above.
SMILES | CtBP-E1A inh | TRPML1 inh | TRPML1 ag | D2 agonist | PINK1 modulator | Six1-Eya2 inh
CC1(OC(=O)C2CCCC2)C(=O)C=C2C=C(c3ccsc3)N(Cc3ccccc3)C=C2C1=O (configuration not stated) | nt | 8 | 0.1 | 5.3 | 0.8% | -5
NC(=O)c1nnn(-c2ccc([N+](=O)[O-])cc2)c1-c1ccccc1 | -2 | 0 | 1.4 | 1.0 | -0.8% | 1
Cc1c(C(=S)NC(=O)C2CC2)c(=O)n(-c2ccccc2)n1C | nt | 17 | 1.7 | -3.7 | 1.3% | -12
COC(=O)c1sc2nc3c(cc2c1N)C(=O)CC(C)(C)C3 | 11 | -2 | -0.4 | -1.8 | 17%[38.3 µM] | 3
CCSC(=O)CCCCCCCCCCCO | 23 | 4 | 0.4 | 1.0 | 0.7% | 36

The list goes on:
SMILES | CtBP-E1A inh | TRPML1 inh | TRPML1 ag | D2 agonist | PINK1 modulator | Six1-Eya2 inh
Cc1ccc(NS(=O)(=O)c2cccc(C(=O)NCC(c3cccs3)N3CCOCC3)c2)cc1 (configuration not stated) | nt | -2 | 0.0 | -0.7 | 1.9% | 5
O=C(Nc1ccsc1C(=O)O)c1ccccc1Cl | -23 | -12 | 2.4 | 6.3 | 3.8% | -15
Cc1csc(N(C)C(=O)CSc2nnc(COc3cccc4ccccc34)o2)n1 | 4 | -14 | 0.0 | 3.5 | -1.9%[38.3 µM] | -9
Cc1cccc(CSc2nc(-c3cccs3)ccc2C#N)c1 | nt | 15 | 0.6 | nt | 7.0% | nt
CC1=C(C(=O)OCc2ccccc2)C(c2cccc(Br)c2)NC(=O)N1 (configuration not stated) | -1 | 19 | 0.2 | 4.2 | 2.1% | 6
CCc1ccc(NC(=O)C2=CC(c3ccc(OC)cc3)=NS(=O)(=O)N2C)cc1 | -11 | 20 | 1.1 | -3.3 | ? | -27
CCOc1ccccc1-n1c(COc2ccccc2)nnc1SCC(N)=O | 8 | 0 | 0.1 | -1.3 | 8.2%[38.3 µM] | 2
COc1cc(OC)c(N(C)S(=O)(=O)c2cccc(C(=O)OCC(=O)N(C)Cc3ccccc3)c2)cc1Cl | -11 | -6 | 2.0 | 0.8 | 2.2% | -7
CCC(=O)N1CCc2cc(Br)cc(S(=O)(=O)N3CCCC(C(=O)NCc4cccc(OC)c4)C3)c21 (configuration not stated) | nt | -2 | -0.6 | nt | 1.2% | nt
Cc1cc(C(F)(F)F)nc(Nc2nc(C)c3ccccc3n2)n1 | 2 | -1 | -1.0 | -3.6 | -1.0% | -1
O=C(c1ccc(Cl)c([N+](=O)[O-])c1)N(Cc1ccco1)C1CCS(=O)(=O)C1 (configuration not stated) | -4 | -12 | -0.2 | 0.1 | 1.4% | 2
COc1ccc(S(=O)(=O)N2CCCCC2)cc1NC(=O)c1ccccc1 | 2 | 11 | -0.7 | -0.5 | 16% | 1
CC(Nc1nc2ccccc2n2cnnc12)c1ccccc1 (configuration not stated) | -3 | 4 | -0.2 | -3.4 | 2.5% | -12
CCOc1ccc(-n2c(Cc3ccccc3)nnc2SCc2nc(-c3ccccc3OC)no2)cc1 | nt | -2 | 1.0 | nt | -0.9% | nt
COc1ccc(Nc2nc(N3CCN(C)CC3)nc3ccccc23)c(OC)c1 | nt | -7 | 1.9 | -1.7 | 1.0% | -12
COc1cc(NS(C)(=O)=O)cc(OC)c1OC | 1 | 2 | 2.2 | 2.5 | 22% | -9
CCOC(=O)N1CCC(c2cc(=O)n3[nH]c(C)c(-c4ccc(F)cc4)c3n2)CC1 | ? | ? | -0.5 | 1.6 | 0.6% | 0
Cc1ccc(C(=O)NCC(=O)N2CCCN(C)CC2)cc1C | 1 | -8 | 0.3 | -1.9 | -0.9% | -1
COc1ccccc1CNC(=O)C/C(C)=N/NC(=O)COc1ccc(C)cc1Br | -8 | 3 | 1.5 | -0.2 | 10% | 1
Cc1ccc(NC(=O)C2CCN(c3cnccn3)CC2)cc1C | 9 | 5 | 0.3 | -2.4 | -0.5% | -4
N#CC(=NCc1cccnc1)C1=C(O)c2ccccc2C1=O | 7 | 8 | -0.4 | 0.5 | -0.6% | -9
COc1cc(C2NC(=O)CCC2[N+](=O)[O-])cc(OC)c1OC (configuration not stated) | -4 | 19 | 0.7 | -1.1 | -0.8% | -3
CCOC(=O)C1CCN(C(=O)c2cccc(S(=O)(=O)N3c4ccccc4CC3C)c2)CC1 (configuration not stated) | 1 | -10 | 0.9 | 0.7 | 2.0% | -1
O=C(Cc1ccc(S(=O)(=O)N2CCOCC2)s1)N1CCN(S(=O)(=O)c2ccccc2F)CC1 | -4 | 12 | -0.3 | 12 | -1.2% | 4
CC(=O)c1ccc(NS(=O)(=O)c2cccc3cccnc23)cc1 | 6 | -2 | -0.4 | -2.6 | 0.4% | 4
COC(=O)C(Cc1ccccc1)NC(=O)c1cc(=O)[nH]c2ccccc12 (configuration not stated) | 15 | -5 | 1.8 | 2.9 | -1.9% | 11
COC(=O)c1cn(C(=O)c2ccc(C)c(C)c2)c2ccccc12 | 18 | 23 | 0.1 | -3.8 | 6.4% | 10
O=C(NCCCc1ccccc1)C(=O)NCC1OCCN1S(=O)(=O)c1ccc(F)cc1 (configuration not stated) | 9 | -1 | 0.6 | -4.0 | 2.1% | -1
COc1cc(C2C(C#N)=C(N)N(N(C)C)C3=C2C(=O)CC(C)(C)C3)cc(OC)c1OC (configuration not stated) | 1 | 11 | 1.5 | -0.2 | 6.5% | 7
NCCOc1ccccc1OCCN | -1 | -2 | -0.2 | -1.7 | 1.0% | 16
O=C(NCC(=O)N(c1ccc(Cl)cc1)C(C(=O)NC1CCCC1)c1ccncc1)c1ccco1 (configuration not stated) | 6 | 18 | -0.1 | -3.3 | -0.3% | 7
CN(C)S(=O)(=O)c1ccc(C(=O)Nc2ccccc2OC(F)(F)C(F)F)cc1 | 7 | 1 | 0.9 | -1.9 | 7.5%[38.3 µM] | 5
COc1ccccc1N1CC(C(=O)Nc2ccc(S(=O)(=O)N3CCCC3)cc2)CC1=O (configuration not stated) | 2 | 7 | 0.9 | -1.8 | 4.6% | 2
Cc1cccc(N2CCN(C(=O)CC(NC(=O)c3ccccc3Cl)c3ccccc3)CC2)c1C (configuration not stated) | 0 | 39 | 1.0 | -0.7 | 11% | -1
COc1cc(/C=N/NC(=O)c2cccc(S(=O)(=O)N3CCCC3)c2)ccc1O | -16 | -15 | -0.2 | -2.9 | -0.6% | -30
Cc1oc2ncn(CC(C)C)c(=O)c2c1C(=O)Nc1cc(F)ccc1F | nt | -15 | -1.0 | nt | -1.2% | nt
CCN(CC(N)=O)S(=O)(=O)c1ccc(F)cc1 | 7 | -11 | 1.4 | 2.2 | -3.3% | 0
COc1ccc(C(c2nnnn2C2CCCC2)N2CCN(c3ccccc3)CC2)cc1 (configuration not stated) | -17 | -1 | 1.0 | -1.1 | -1.2% | -18
CCOC(=O)c1cc2c(OC)c(OC)ccc2c2[nH]cc(C#N)c(=O)c12 | -6 | 6 | 0.0 | -1.5 | 3.8% | 3
Cc1cc(O)cc2c1O[C@@](C)(CCC[C@@H](C)CCC[C@@H](C)CCCC(C)C)CC2 | 6 | -2 | -0.7 | -2.7 | 1.1% | 1
O=C(c1cc(S(=O)(=O)N2CCCCC2)ccc1F)N1CCCCC1 | 5 | -7 | -0.2 | -0.6 | 1.9%[38.3 µM] | 2
CCCn1c(=N)n(CC(O)c2ccco2)c2ccccc21 (configuration not stated) | -3 | 2 | 1.5 | -2.3 | 1.2% | 3
CN(C)/C=C(\C(=O)c1ccc(Cl)cc1)c1nnnn1-c1ccc(Cl)cc1 | -4 | 6 | 0.1 | -1.7 | 1.5% | 13
COc1ccccc1OCCCCn1c(C2CC(=O)N(c3ccccc3Cl)C2)nc2ccccc21 (configuration not stated) | nt | 5 | -0.6 | nt | -1.2% | nt
CC1(C)CC(=O)C(CC2=C(O)CC(C)(C)CC2=O)=C(O)C1 | 10 | 3 | -0.4 | 0.5 | ? | 1
Cc1cc(C)c2c(n1)nn1c(C)c(CCC(=O)NCc3ccco3)c(C)nc21 | -14 | -2 | -0.7 | -7.6 | 1.4% | -13
Cc1cc(C)cc(NC(=O)C(=O)NC(C)c2ccccc2)c1 (configuration not stated) | nt | 12 | -1.3 | nt | 6.0% | nt
N#Cc1c(C(F)(F)F)cc(-c2ccc(Cl)c(Cl)c2)nc1SCCN1CCOCC1 | 9 | 54 | -0.3 | -0.1 | 6.1%[38.3 µM] | -2
CC(C)CC(c1nnnn1C1CCCC1)N1CCC(C(N)=O)CC1 (configuration not stated) | 9 | -9 | -0.6 | 0.0 | 0.8% | 3
Nc1nc(NCCCN2CCOCC2)nc(NCc2ccccc2)c1[N+](=O)[O-] | -3 | 3 | -0.1 | -2.3 | -1.5% | -1
CCOC(=O)[C@@H]1[C@H]2COc3ccccc3[C@@H]2N2C(=O)N(c3cccc(C)c3)C(=O)[C@@]12C | 2 | -25 | -0.3 | -4.6 | -0.2% | 2
COc1ccccc1NS(=O)(=O)c1ccc(C)c(NC(=O)c2ccc(S(=O)(=O)N3CCCCCC3)cc2)c1 | 2 | -7 | 0.1 | 0.5 | -1.5% | 30
